High-throughput results: PubChem, National Center for Advancing Translational Sciences (NCATS)
HPGD block – HPGD (human) dehydrogenase inhibition. P15428. purified HPGD, NADH fluorescence kinetic, PGE2 substrate. Potency, µM, inactives show top-dose activity change, negative = inhibition, most hits filed as inhibitors. 4.3% of 150,000 active; active = well fitted inhibition curve with a large enough effect (not every such curve was filed as active); inconclusive = small, poorly fitted or top-dose-only effect, or another doubt; inactive = no such curve, though single readings can be large or run the other way;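 further: top concentration of the series not given in the record; plate controls included wells without enzyme; inactives centre near -10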
Target sequence (P15428 whole entry, looked up): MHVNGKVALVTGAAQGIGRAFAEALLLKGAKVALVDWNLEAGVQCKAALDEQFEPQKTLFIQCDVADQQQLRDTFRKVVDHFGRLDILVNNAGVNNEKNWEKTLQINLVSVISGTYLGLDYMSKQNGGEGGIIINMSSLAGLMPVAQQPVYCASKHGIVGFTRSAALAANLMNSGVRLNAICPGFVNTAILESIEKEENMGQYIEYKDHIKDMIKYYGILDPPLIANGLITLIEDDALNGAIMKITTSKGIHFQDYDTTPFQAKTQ
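NADH formation kinetics: reaction with 30 uM PGE2 and 1 mM NAD+ (final), 20 nM enzyme, Tris-HCl pH 8 with Tween 20, after 15 min compound preincubation at room temperature. Fluorescence change, last versus first of five reads.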
Starred values were filed as active, the others as inactive; ? = inconclusive; & = joins results of further samples. On the % scale 0 is the no-effect control and ±100 the full control effect; potency means the concentration at half of the fitted maximal effect. This is a subset; rates above refer to the full screens.

Start of the listing, in advance, 2 compounds:
molecule	HPGD block
CCSC(C)CC1C/C(=N/O)c2c(C)noc2C1 (stereo not given)	25.1µM*
Cc1cccc2cc(CN(C(=S)NCC(C)C)C3CCCC3)c(=O)[nH]c12	-8.9%

Main list (from the top)
molecule	HPGD block
CCSC(C)CC1C/C(=N/O)c2c(C)noc2C1 (stereo not given)	25.1µM*
Cc1cccc2cc(CN(C(=S)NCC(C)C)C3CCCC3)c(=O)[nH]c12	-8.9%
Cc1ccnc(NC(=O)c2ccoc2C)c1	-2.6%
CCC1=NN(C(=O)Cc2ccc([N+](=O)[O-])cc2)C(O)(c2ccc(Br)cc2)C1 (stereo not given)	-13.8%
Cc1cccc(Cn2ccc(-c3ccc(Cl)cc3)c(C#N)c2=O)c1	-16.9%
COCCn1nnnc1C(c1cc2cc(C)ccc2[nH]c1=O)N1CCCCCC1 (stereo not given)	-19.2%
COc1ccc(N2C(=O)C3CCCN3C2c2ccc(Cl)cc2)cc1 (stereo not given)	1.3%
CCOC(=O)c1c(NC(=O)C(C)Sc2cn(C)c3ccccc23)sc2c1CCC2 (stereo not given)	-11.6%
CC(C)(C)c1ccc(C(=O)NCc2nnc(SCC(=O)N3CCCc4ccccc43)n2-c2ccccc2)cc1	-12.2%
C=CCOC(=O)COc1ccc2c(C)c(CC)c(=O)oc2c1	?
COC(=O)C1=C(C(=O)OC)[C@@H]2N(C)c3ccc(OC)cc3[C@@]23C[C@@H](C(=O)OC)N(S(=O)(=O)c2ccc(C#N)cc2)C3=N1	0.7%
COc1cccc(C(=O)NCC(=O)N2CCC(C)CC2)c1	-27.5%
COC(=O)c1ccccc1NC(=O)C1CCCO1 (stereo not given)	-12.6%
C/C(=N\O)c1ccc2c3c([nH]c2c1)CCCC3	?
COc1ccc(-c2cc(C(=O)OC3CCOC3=O)c3ccccc3n2)cc1 (stereo not given)	?
CCNC(=S)NNC(=O)CCn1cc(C)cn1	-1.8%
Cc1ccc(Cl)cc1N1CCN(Cc2cc3c(cc2O)CCC3)CC1	-3.4%
Cc1c(Nc2nc3ccccc3nc2NS(=O)(=O)c2ccccc2)c(=O)n(-c2ccccc2)n1C	-26.7%
COC(=O)c1cc2occc2n1Cc1nc(-c2ccccc2Cl)oc1C	-10.3%
N#CCSc1nc2c(c(=O)n1Cc1ccccc1)C1(CCCC1)Cc1ccccc1-2	-20.4%
CCOc1cc(/C=C2/C(=N)N3C=CSC3=NC2=O)ccc1OCCCOc1ccccc1C	?
Nc1nnn(CC(=O)N/N=C/c2cccc3ccccc23)n1	-19.9%
NC(=O)C1(N2CCCCC2)CCN(C(=O)NC23CC4CC(CC(C4)C2)C3)CC1	-11.6%
CSCCC(NC(=O)c1ccccc1)C(=O)NC1CC1 (stereo not given)	1.9%
CC[N+](C)(C)c1cccc(O)c1	-5.6%&-6.9%&-3.9%&0.3%
Cc1ccc(S(=O)(=O)CC(N)=O)cc1	-0.2%
COC(=O)/C(NC(C)=O)=C(\C)c1ccc(Cl)cc1	2.1%
N[C@@H](Cc1ccccc1)C(=O)O	-9.2%&-6.9%
COC(=O)c1cc(O)c(O)c(O)c1	1.8%
CCNc1cc(N2CCCC2)ccc1[N+](=O)[O-]	-11.2%
Cn1cccc1C(=O)N1CCC2(CC1)CN(C(=O)Nc1ccccc1)C2	-5.8%
Cn1cnnc1SCc1ccc(C(=O)N=Nc2c(O)n(Cc3ccc(Cl)cc3)c3ccccc23)cc1	-19.7%
COc1ccc(-c2nc(CS(=O)CC(=O)NC3CCCc4ccccc43)c(C)o2)cc1OC (stereo not given)	-11.0%
COc1ccc(C(=O)c2cc([N+](=O)[O-])ccc2N2CCOCC2)cc1	-14.2%
C=C(C)Cn1c(SCC(=O)NCc2ccco2)nc2sc3c(c2c1=O)CCC3	-9.2%
N#C/C(=C/c1ccc(N2CCCCCC2)o1)c1cccc(F)c1	25.1µM*
CC(=O)C1CCC2C3CC=C4CC(O)CC[C@@]4(C)C3CC[C@]12C (stereo not given in full)	0.8%
CCOCCn1c(N2CCN(c3ccccc3)CC2)nc2c1c(=O)n(C)c(=O)n2C	-7.8%
CC#CCN1c2ccccc2[C@]23C[C@@H](C(=O)OC)N(S(=O)(=O)c4ccc([N+](=O)[O-])cc4)C2=NC(C(=O)OC)=C(C(=O)OC)[C@H]13	-3.0%
COCCNC(=S)N/N=C(\C)c1cccc([N+](=O)[O-])c1	-11.4%
Cc1cc2nc(C)n(CCCNC(=O)Nc3ccc(F)cc3)c2cc1C	-1.6%
COc1cccc(N2CCN(c3ccc(S(=O)(=O)N4CCCC4)cc3)CC2)c1	-16.7%
Cn1cc(Br)c(C(=O)NNC(=O)c2ccccc2)n1	2.6%
Cc1ccccc1NC(=O)C(=O)NCCc1ccccc1	-4.1%
O=C(Nc1ccc(N2C(=O)c3cccc4cccc(c34)C2=O)cc1)c1ccc(N2CCCCC2)c([N+](=O)[O-])c1	-8.1%
O=C(/C=C/c1cccc([N+](=O)[O-])c1)NCCN1C(=O)S/C(=C\c2ccc(F)cc2)C1=O	-6.4%
CC(C)COC(=O)Nc1nnc(SCc2ccccc2F)s1	-11.8%
COc1cccc2cc(C(=O)Nc3cccc(C)n3)c(=O)oc12	-9.0%
CCCCn1c(=O)[nH]c2ccccc21	-1.6%
CCOC(=O)c1cc(C)sc1NC(=O)CCC(=O)O	-15.8%

Later entries.
molecule	HPGD block
COc1ccc(C(=O)Nc2c(Cl)cc(Cl)cc2C(=O)NCc2ccco2)cc1	-12.0%
COc1ccccc1OCCNC(=O)c1cc(F)c(F)cc1Cl	-18.0%
CN1CCN(C(=O)c2ccccc2NC(=O)c2cccs2)CC1	-10.6%
CC1CCOC2(O1)C(=O)N(CN1CCN(c3cccc(Cl)c3)CC1)c1ccccc12 (stereo not given)	0.4%
S=c1nc(-c2ccccc2)n(CCN2CCOCC2)c2c1CCCC2	-15.9%
O=C(c1ncc[nH]1)c1ccco1	-15.1%
O=C(Cc1ccc(Cl)cc1)N/N=C/c1c(Cl)cccc1Cl	-4.9%
Cc1ccc(-n2c(CSc3nc(C)cc(C)n3)nnc2SCC(=O)NCc2ccco2)cc1	-15.8%
COc1cc(C(=O)O)ccc1O	-7.3%
CC(C)CNS(=O)(=O)c1ccc(CCC(=O)O)cc1	-11.7%

4 compounds already listed, ordered by number of heavy atoms, descending.
molecule	HPGD block
Cc1c(Nc2nc3ccccc3nc2NS(=O)(=O)c2ccccc2)c(=O)n(-c2ccccc2)n1C	-26.7%
COc1ccc(C(=O)c2cc([N+](=O)[O-])ccc2N2CCOCC2)cc1	-14.2%
CCNc1cc(N2CCCC2)ccc1[N+](=O)[O-]	-11.2%
COC(=O)c1cc(O)c(O)c(O)c1	1.8%

(cont.)
molecule	HPGD block
O=C(CCCc1cccs1)Nc1nc2c(s1)CCCC2	-7.1%
CC1CCCCC1NC(=O)C1CCCN1S(=O)(=O)c1cccc2nsnc12 (stereo not given)	-10.2%
COCCNC(=O)c1ccc2snnc2c1	-8.9%
CCCOP(=O)(c1ccc(N(C)C)cc1)C(Nc1ccccc1)c1ccc(N(C)C)cc1 (stereo not given)	-26.6%
NC(=O)c1cc(-c2ccccc2)nc(N2CCCCCC2)n1	?
Cc1nc(SCC(=O)Nc2ccccc2C(F)(F)F)c(C#N)c(C)c1CC(=O)c1ccc(Br)cc1	-18.2%
CC(C)(C)c1ccc(C(=O)N/N=C/c2cccc(Cl)c2)cc1	-26.8%
N/C(=N\c1nc2ccccc2o1)NC(=O)c1ccc(F)cc1	-5.5%
COC(=O)C1=C(C)NC(=O)/C1=C\c1ccc2c(c1)OCO2	-13.7%
Cc1n[nH]c(C)c1N1C(=O)c2cccc3c(Br)ccc(c23)C1=O	-15.6%
COc1ccc(C2C(C(=O)Nc3ccccc3)=C(C)Nc3nc(CCCO)nn32)cc1 (stereo not given)	1.2%
CCCCCn1nc(C)c(/C=N\NC(=O)c2cc(C)oc2C)c1C	-9.1%
Fc1cccc(Cl)c1CNC(c1ccccc1)c1ccccc1	-12.5%
C/C(=N\NC(=O)CSc1nc2ccccc2s1)c1ccco1	-26.4%
CC(C)Cn1c(/C=N/Nc2nc3ccccc3[nH]2)nc2ccccc21	-15.2%
CC1=CCC(/C=N\Nc2nnc3c(n2)[nH]c2ccccc23)CC1 (stereo not given)	-4.2%
O=C(COC(=O)/C=C/c1cccc(C(F)(F)F)c1)NC(c1ccccc1)c1ccccc1	-2.6%
NC(CC(=O)OC1CCCCC1)C(=O)OC1CCCCC1 (stereo not given)	-1.0%
O=C(O)c1cc(C(=O)O)nc(C(=O)O)c1	-10.2%
C/C(N)=C(/C#N)C(=O)COC(=O)c1ccc(O)cc1	-8.9%
Cc1ccccc1C(=O)OCCN1CCOCC1	-4.9%
O=S(=O)(NCC1CCCO1)c1ccc(S(=O)(=O)N2CCCC2)cc1 (stereo not given)	-1.3%
O=S(=O)(Nc1ccc(S(=O)(=O)N2CCCCC2)cc1)c1ccc(Br)s1	6.7%
O=C(c1ccc(CS(=O)(=O)c2ccc(Br)cc2)o1)N1CCN(c2ccccn2)CC1	-8.7%
Cc1nnc(Nc2ccc(Cl)cc2)n(N)c1=O	-6.1%
O=S(=O)(NC1CCCCC1)c1cccc(-c2nnc(-c3ccccc3)o2)c1	17.8µM*
CCSc1nc2ccccc2n1CC(=O)OC	-9.7%
COC(=O)CN1C(=O)C2(C(C#N)=C(N)Oc3n[nH]c(-c4cccs4)c32)c2ccccc21 (stereo not given)	-2.4%
O=C(Nc1ccccc1)Nc1cccc(Cl)c1Cl	-3.9%
c1ccc(OCCCn2nnc(-c3ccc(N4CCOCC4)cc3)n2)cc1	-5.0%

(further entries)
smiles,HPGD block
COc1ccc(Nc2ccc(Cl)cc2)c(C(=O)O)c1,-9.6%
Cc1c(NC(=O)c2cc3nc(-c4ccc(Cl)cc4)cc(C(F)(F)F)n3n2)c(=O)n(-c2ccccc2)n1C,-6.2%
O=S(=O)(c1ccc(Nc2ccc3c(c2)OCO3)nc1)N1CCOCC1,-5.9%
O=c1[nH]c2ccccc2c2ccccc12,-15.1%
Cc1cc(N2CCN(Cc3ccccc3)CC2)n2nc(C)c(-c3ccccc3)c2n1,?
COc1cc(C(=O)NCCOc2cccc(C)c2)c(Br)c(OC)c1OC,6.9%
Cc1ccc(C2=NC3(CCCCCC3)NC2=S)cc1,-8.0%
COC(=O)c1ccc(NC(=O)CSc2nncc3ccc(OC)c(OC)c23)cc1,-4.7%
CCOc1ccc(NC(=O)Nc2nnc(CC)s2)cc1,-8.0%
COc1ccc(S(=O)(=O)N2CCOCC2)cc1NC(=O)Cc1ccc(Cl)c(Cl)c1,-11.0%
COc1ccc(C)cc1S(=O)(=O)N(CC(=O)N1CCCC1)c1ccccc1,0.1%
O=C(NC1CSC/C1=N\O)c1ccccc1 (stereo not given),-10.8%
CCOC(=O)c1c(-c2cccs2)csc1NC(=O)CSc1ncn[nH]1,?
CCCCCCCC(=O)NN=C1CCN(Cc2ccccc2)CC1,-8.6%
COc1ccc2c(c1)[N+](=O)C(/C(C)=N/NC(N)=S)=C(C)[N+]2=O,-19.4%
Cc1ccc(-c2ccc(CCC(=O)O)n2NC(N)=S)cc1,-12.8%
Cc1ccc(NC(=O)CCC(=O)NNS(=O)(=O)c2ccccc2)cc1C,4.8%
CCCOc1ccc(/C(O)=C2\C(=O)C(=O)N(CCCOC)C23C(=O)N(C)c2ccccc23)cc1 (stereo not given),-14.9%
CCOC(=O)c1[nH]c2c(c1-c1ccccc1)C(=O)CC(c1ccc(OCC)cc1)C2 (stereo not given),-2.3%
CN(CCO)Cc1csc2ccc(Br)cc12,-7.4%
Cc1cccc(C)c1NC(=O)NC1(C(=O)NCCCN2CCOCC2)CCCCC1,0.4%
Cc1c(Cl)cccc1-c1ccc(C(=O)N2CCN(c3ccc([N+](=O)[O-])cc3)CC2)o1,-9.5%
CC(=O)OC(C(=O)NC1CCCCC1)c1ccc(C)cc1 (stereo not given),-13.3%
COc1ccc(C(c2nnnn2Cc2ccccc2)N2CCN(c3nc4ccccc4s3)CC2)cc1OC (stereo not given),-13.7%
CC(CC(=O)Nc1cccc(Cl)c1)c1ccccc1 (stereo not given),?
COc1ccccc1-n1cnc2c(c1=O)c1nc3ccccc3nc1n2-c1ccc(C)cc1,?
Cc1cc(C(=O)OCC(=O)NCCc2ccccc2)c(C)o1,-17.1%
OCc1cc([C@@H](O)CNCCCCCCOCCCCc2ccccc2)ccc1O,-6.4%
O=C(c1cc(-c2ccc3c(c2)OCO3)on1)N1CCOCC1,31.6µM*
CC(=O)c1c(O)cc(=O)n(-c2ccccc2)c1-c1cccc2ccccc12,2.1%
CC(=O)Nc1ccc(S(=O)(=O)NC2(C(F)(F)F)NC(=O)N(C3CCCCC3)C2=O)cc1 (stereo not given),-8.4%
O=C(Nc1nc2c(s1)CCCC2)C1COc2ccccc2O1 (stereo not given),-10.1%
CCOC(=O)Cc1csc(N/C(=N/S(=O)(=O)c2cc(Br)ccc2OCC)c2ccccc2)n1,-10.1%
O=C(O)c1oc2ccc(Br)cc2c1-n1cccc1,-24.0%
O=C(Nc1ccc2oc(-c3cccc(F)c3)nc2c1)c1ccccc1F,?
COc1cc(Nc2nc3ccccc3n3nnnc23)cc(OC)c1OC,-13.7%
Cc1ccc(S(=O)(=O)NCc2ccc(C(=O)N3CCN(Cc4ccccc4)CC3)cc2)cc1,-1.5%
CC1CCCN(C(=O)c2ccc(CNc3c(N4CCCCC4)c(=O)c3=O)cc2)C1 (stereo not given),0.282µM*
CCCn1c(=O)c2ccccc2n2c(SCc3nnc(-c4ccccc4Br)o3)nnc12,-9.0%
